High-throughput results deposited in PubChem BioAssay by several laboratories.
Autofluor counter – compound fluorescence in toxin protease inhibitor counterscreen; compound autofluorescence counterscreen, microsphere flow cytometry; hits give high values; fluorescence intensity (test concentration not listed); 360,000 tested, 3.1% active;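 active means at least 3 SD above the mean of all compounds, about 16000 in these data; inconclusive means too few beads counted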;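 further: 100 nL of 1 mM stock went into each well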
PrP UTR inh – inhibition of PrP 5' UTR reporter expression; cell-based PrP 5' UTR mRNA reporter, plate reader; inhibition, % (concentration not given with the values); 340,000 tested, 0.35% active; AID 488862;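 active means every replicate at 50% or more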;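 further: 0 = median of the neutral control wells; tested in H4 reporter cells; numbers are from one replicate; inactives centre near -14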
Mtb hypoxia rep – inhibitors of hypoxia-regulated fluorescent reporter in Mycobacterium tuberculosis | M. tuberculosis hypoxia-regulated fluorescent reporter, fluorescence | AID 1159583 | fluorescence inhibition, % (concentration not given with the values) | 300,000 tested, 0.1% active;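 active means 35 to 45% if threefold the growth effect, above 45% if 1.5-fold the growth effect; inactive means the rest, general growth blockers included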;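 further: wells of about 50 µL received 100 nL stock; 0% = vehicle wells and 100% = reference inhibitor wells; whole bacteria with a GFP reporter of the hypoxia response; strong numbers were not always called active; many hits fall short of the cut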
RN4220 kill – S. aureus RN4220 growth inhibition; OD600, 16 h; AID 1259311; 330,000 tested, 0.33% active; inhibition, % (test concentration not listed);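 active means z-score of -3 or lower and OD600 up to 0.18 on both plates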;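 further: plate controls were untreated cells for no effect and reference antibiotic for full effect; stock transfer was 100 nL into about 80 µL; one replicate is shown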
BJeLR lethal – BJeLR cell viability loss; BJeLR (HRASV12) viability, CellTiter-Glo ATP luminescence, 48 h; reference of the scale not given here; AID 1554; 300,000 tested, 0.17% active; inhibition, % (no concentration beside the values);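 active means replicate mean above 50%; inconclusive means above 50% but judged a plate artefact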;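 further: 50 nL library stock added to about 25 µL; numbers are from one replicate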
Sa ugtP lethal – growth inhibition of S. aureus ugtP deletion strain; S. aureus RN4220 ugtP deletion, OD600 growth, 16 h; some inactives read as strong as hits; growth inhibition, % (test concentration not listed); 330,000 tested, 0.54% active;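 active means z-score under -3 and OD600 up to 0.15 on both plates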;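 further: plate controls were untreated wells for no effect and antibiotic for full effect; wells of about 80 µL received 100 nL stock; the first replicate is given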
Mtb hypoxia rep growth – further read-out of Mtb hypoxia rep, marked with its call; growth inhibition, %; measured here: M. tuberculosis growth (absorbance);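 0% = vehicle and 100% = reference antibiotic; read after six days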
An asterisk follows results filed as active; u = inconclusive; x = not tested or not shown.

SMILES	Autofluor counter	PrP UTR inh	Mtb hypoxia rep	Mtb hypoxia rep growth	RN4220 kill	BJeLR lethal	Sa ugtP lethal
O=C(O)C(Cc1cnc[nH]1)NS(=O)(=O)c1ccc(Cl)cc1 (stereo not given)	2498	-19	9	7	2.8	-14	12
Cc1cc(Cl)cc(Cl)c1OCCCCN(C)C	2998	-14	-5	0	1.4	-7	1
CCOc1ccc(NC(=NCc2ccc3c(c2)OCO3)SC2CC(=O)N(c3ccccc3)C2=O)cc1 (stereo not given)	10927	-20	3	3	0.6	0	2
CCOC(=O)c1ccccc1NC(=O)[C@@H]1CCCN1C(=O)OC(C)(C)C	4008	-13	8	-2	3.8	11	-5
Cc1ccc(-c2cc(C(=O)N/N=C/C=C/c3ccco3)c3ccccc3n2)cc1C	3602	19	x	x	x	1	x
O=C(Nc1ccccc1)c1ccc(C(=O)Nc2ccccc2)nc1	4834	-85	9	-2	2.1	4	8
Nc1ncnc2nc(SCC(=O)N3CCN(c4ccccc4)CC3)[nH]c12	17350*	-8	-7	-8	0.9	9	-9
CCCCOc1ccc(-c2cn3ccccc3n2)cc1[N+](=O)[O-]	2807	-87	8	8	3.3	16	-14
COc1ccc(S(=O)(=O)NCCOc2ccccc2)cc1C	3363	-16	5	4	5.5	8	-3
COc1ccc(-c2nn(-c3ccccc3)cc2/C=C/C(=O)OCC(=O)Nc2ccc(C#N)cc2)cc1	10312	-9	-3	-6	12	-8	-5
COc1ccc(C2(c3ccc(OC)cc3)NC(=O)N(CC(=O)NC3(C#N)CCCC3)C2=O)cc1	3925	-16	14	8	2.9	x	4
CN(CC(=O)Nc1ccccc1Cl)C(=O)COC(=O)c1ccc(-c2ccc(O)cc2)cc1	3868	-24	-1	5	4.9	x	-5
COc1cc(C)c(Cl)cc1S(=O)(=O)N1CCSC1	3881	-9	6	2	-1.1	7	19
Cc1ccc(NC(=O)C(C)Sc2nnc(C)n2C)cc1 (stereo not given)	3948	-4	9	-5	5.1	-31	8
COc1ccc(C)cc1NC(=O)Nc1ccccc1	2827	1	x	x	-4.0	-5	8
COc1cc(C(=O)NC2CCCC(C)C2C)ccc1OCC(=O)N1CCOCC1 (stereo not given)	x	-25	6	5	-1.3	x	0
CC(=NNS(=O)(=O)c1ccc(C)cc1)c1cccs1	x	x	-1	-1	9.3	x	-1
Cc1ccccc1C(=O)c1cccn1CC(=O)NCc1ccccc1	4381	-24	17	9	6.9	4	1
CN(CCO)c1nc(NCc2ccccc2)c2cnn(C)c2n1	5303	5	3	-2	5.0	-13	-1
COc1ccc(Cc2nnc(SCc3nc4ccccc4c(=O)[nH]3)n2C)cc1	5800	6	6	-5	1.1	-1	2
CSC1=N/C(=C/c2cccnc2)C(=O)N1Cc1ccccc1	x	-19	-1	-1	2.1	5	4
Cc1ccc(C)c(N)c1	5055	-8	13	9	4.0	x	3
CC(Sc1nncn1C)C(=O)Nc1nnc(-c2ccccc2)s1 (stereo not given)	5030	-7	-1	-8	14	2	3
CC(=O)NC(C)(C)C1CC=C(C)/C(=N\O)C1 (stereo not given)	17063*	-7	x	x	x	5	x
COc1cc(OC)c2ccc(=O)oc2c1C(CC(=O)N1CCN(c2ccccc2)CC1)c1ccc2c(c1)OCO2 (stereo not given)	3226	-10	0	8	-5.8	4	-5
Cc1ccccc1NS(=O)(=O)c1ccc2c(c1)oc(=O)n2C	3443	-14	12	-5	5.2	-9	0
COC(=O)c1cc2cc(Cl)ccc2nc1SC	5965	-11	14	-4	6.2	-5	3
Cc1ccc(NC(=O)CCC(=O)NN=Cc2coc3ccc(F)cc3c2=O)cc1	x	x	0	7	1.8	x	6
Cc1oc(-c2ccccc2Cl)nc1CSc1nc2c(c(=O)[nH]1)CCCC2	x	-28	7	9	3.6	1	-1
CCOC(=O)N1CCC(N(CCN(C)C)C(=S)Nc2cccc(C)c2)CC1	2145	-9	14	5	6.7	4	-3

Grouped by structure, the compounds so far with a cyano group
SMILES	Autofluor counter	PrP UTR inh	Mtb hypoxia rep	Mtb hypoxia rep growth	RN4220 kill	BJeLR lethal	Sa ugtP lethal
COc1ccc(-c2nn(-c3ccccc3)cc2/C=C/C(=O)OCC(=O)Nc2ccc(C#N)cc2)cc1	10312	-9	-3	-6	12	-8	-5
COc1ccc(C2(c3ccc(OC)cc3)NC(=O)N(CC(=O)NC3(C#N)CCCC3)C2=O)cc1	3925	-16	14	8	2.9	x	4

(listing goes on)
SMILES	Autofluor counter	PrP UTR inh	Mtb hypoxia rep	Mtb hypoxia rep growth	RN4220 kill	BJeLR lethal	Sa ugtP lethal
C/C=C(/C)C(=O)O[C@@H]1c2cc3c(c(OC)c2-c2c(cc(OC)c(OC)c2OC)[C@@H](OC(C)=O)[C@@H](C)[C@H]1C)OCO3	4207	-26	x	x	x	-14	x
Cc1cc(C)c(O)c(-c2cc(C(=O)Nc3ccc(S(=O)(=O)N4CCOCC4)cc3)[nH]n2)c1	3197	-11	7	5	33	-4	14
COc1ccc(OC)c(NC(=O)CSc2nccn2Cc2ccco2)c1	6286	-15	-3	6	3.8	7	6
COc1cccc(-n2nnnc2SCC(=O)Nc2ccc(OC)cc2OC)c1	3572	-14	10	12	1.3	1	4
C/C(=N\Nc1cccc(Cl)c1)c1ccncc1	4447	-8	x	x	x	-7	x
Cn1ccc(=S)c2ccccc21	3579	-12	-5	-2	-6.8	8	-6
CN(C(=O)CN1C(=O)c2ccc([N+](=O)[O-])cc2C1=O)C1CCCCC1	2954	-16	4	4	2.3	x	8
O=C(CN(C(=O)c1ccc(Cl)cc1Cl)N1C(=O)C2C3C=CC(C3)C2C1=O)c1ccc(F)cc1 (stereo not given)	5843	x	2	6	1.1	-15	5
Cc1cc(N=Nc2ccccc2C)ccc1N	3556	-59	3	3	-3.7	-3	11
CCN(C(=O)COC(=O)/C(=C/c1ccccc1)NC(C)=O)c1c(N)n(Cc2ccccc2)c(=O)[nH]c1=O	u	-9	1	-5	-1.0	x	-1
O=C(COC(=O)CCc1ccccc1)NNC(=O)c1ccccc1	3922	-15	0	-1	1.3	x	2
CC12CCC(=O)N1C(C(=O)Nc1cc(Cl)ccc1N1CCCC1)CS2 (stereo not given)	8859	-14	9	-3	4.0	x	-3
O=C1CC(=O)Nc2cc(S(=O)(=O)N3CCN(c4cccc(C(F)(F)F)c4)CC3)ccc2N1	4406	-43	14	9	5.2	1	5
COc1ccccc1N1CCN(C(=O)c2sc3ncn(CC(=O)N4CCC(C)CC4)c(=O)c3c2C)CC1	5295	-16	-3	7	1.7	-6	7
COc1ccccc1C(=O)N/N=C/c1ccc2c(c1)OCO2	5031	-65	x	x	x	-4	x
CC(C(=O)OCC(=O)Nc1cccc(S(=O)(=O)N(C)C)c1)N1C(=O)c2ccccc2C1=O (stereo not given)	3886	-21	14	7	3.5	0	4
COC(=O)c1c(NC(=O)CN2CCC(C(N)=O)CC2)c2c(C)cccc2n1C	3800	-3	x	x	3.4	-1	7
O=C(CC1Nc2ccccc2NC1=O)NCC1COc2ccccc2O1 (stereo not given)	2363	-14	x	x	x	-13	x
Cc1ccc(S(=O)(=O)NNC(=S)Nc2cccc(F)c2)cc1	4385	0	12	8	9.3	-1	3
COc1ccc(NC(=O)OCCN2CCN(Cc3ccccc3)CCC2=O)cc1	3136	-22	-1	-1	0.2	-9	1
CCOc1ccc(CNC(=O)C2CCN(c3nnc(C)c4c(C)n(-c5ccc(C)cc5)nc34)CC2)cc1	17592*	-23	9	14	1.6	-2	-1
Clc1ccc(OCCSc2ncccn2)cc1	4653	-68	10	8	18	7	24
CN(CC(=O)NCc1ccncc1)S(=O)(=O)c1ccc(Cl)cc1	4452	-2	16	12	6.0	3	8
CCOc1ccc(N2C(=O)CC(N(C)Cc3ccccc3)C2=O)cc1 (stereo not given)	2703	-28	4	12	5.2	-15	0
Cc1ccccc1N1CC(C(=O)Nc2nnc(SCCN3CCOCC3)s2)CC1=O (stereo not given)	5362	-5	-3	2	4.2	22	0
O=S(=O)(c1ccccc1)N1CCc2ccccc2C1	4124	-15	3	-7	7.5	4	10
OC(CN1CC=C(/C=C/c2ccc(Br)cc2)CC1)c1ccccc1 (stereo not given)	4556	-51	0	-3	0.6	9	-11
OCC(O)CNC(=S)NC1CCCCC1 (stereo not given)	4901	-24	6	5	2.8	x	13
N/C(=N\N=C\c1ccc(Br)o1)c1nonc1N	4288	-106	x	x	x	7	x
CS(=O)(=O)N(CC(=O)NC1CCCCC1)c1cccc(F)c1	4592	12	4	6	5.4	9	4
O=C(CN1/C(=C(/O)c2ccccc2)C(=O)c2ccccc2S1(=O)=O)c1ccccc1	3565	-19	3	11	21	5	-8
C/C(=N/NC(=O)CSc1nc2ccccc2n1C)c1ccco1	4382	0	x	x	x	-1	x
COC(=O)C1CSc2[nH]c(=O)sc2C1c1ccc(O)c(OC)c1 (stereo not given)	3154	2	7	2	6.4	-4	-1
COc1ccccc1-n1cc(C(=O)N2CCCC(CO)(Cc3ccccc3C)C2)cn1 (stereo not given)	2675	-10	13	4	3.9	-4	-4
CCCNC(=S)N1CCC(NC(=O)c2ccc(OC)cc2)CC1	3011	12	2	-2	0.6	-8	12
O=C(Nc1ccc(S(=O)(=O)NCC2CCCO2)cc1)C1CC(=O)N(c2ccccc2)C1 (stereo not given)	3835	-29	2	9	3.1	1	4
CC(=O)Nc1ccc(S(=O)(=O)NCc2csc(-c3cccnc3)n2)cc1	2383	-10	7	5	18	-7	16
Cc1cccn2c(NC(=O)c3ccccc3F)c(-c3ccccc3)nc12	3915	-25	3	-4	3.4	-9	7
COc1cc(C(=O)NCC(=O)OCc2cc(=O)oc3c(C)c(C)ccc23)cc(OC)c1OC	4317	-15	16	2	7.6	1	7
O=C(COC(=O)C12CC3CC(CC(C3)C1)C2)NCc1ccccc1	3838	-19	3	2	4.7	x	3
CN1C(=O)C(=Cc2ccc(N3CCOCC3)o2)C(=O)N(C)C1=S	5242	-42	23	7	3.3	-1	6
C=CCNC(=S)N/N=C/c1ccc(C)cc1C	3161	-1	x	x	x	2	x
CC(C)(C)c1cc(-c2csc(Nc3ccccc3)[n+]2Cc2ccc(C(=O)O)cc2)cc(C(C)(C)C)c1O	4542	-15	-6	7	23	-4	3
O=C(CN1C(=O)NC2(CCCCC2)C1=O)Nc1ccc(Cl)cc1	3508	-13	3	15	2.4	x	-2
C[n+]1ccc(CC2C(=[N+]([O-])[O-])C=Nc3ncnn32)cc1 (stereo not given)	5243	-18	0	-2	0.7	x	-9
Cn1c(=O)n(C)c2cc([N+](=O)[O-])c(N3CCN(S(C)(=O)=O)CC3)cc21	2195	-20	0	8	3.6	-33	2
CCOc1ccc2c(c1)C(c1ccccc1)=NNC(c1ccccc1)=N2	3926	-14	x	x	-1.5	-11	2
CCn1cc(C(=O)O)c(=O)c2cc(F)c(N3CCN(C(=S)NC(=O)c4cccc(F)c4)CC3)cc21	5002	-25	16	10	12	4	9
CCOc1cc(CN2CCCC(N3CCc4ccccc4C3)C2)ccc1O (stereo not given)	3787	-18	-12	0	1.8	-1	6
CCOc1cc(C#N)ccc1OCC(=O)N1CCc2ccccc2C1	3458	-13	-5	-5	2.9	-3	13

(list continues)
SMILES	Autofluor counter	PrP UTR inh	Mtb hypoxia rep	Mtb hypoxia rep growth	RN4220 kill	BJeLR lethal	Sa ugtP lethal
Nc1nnnn1/N=C/c1ccccc1OCc1ccc(Cl)cc1Cl	22215*	-3	x	x	x	1	x
CN(C)c1ccc(C2C=C(c3ccc(Cl)cc3OC(F)F)Nc3ncnn32)cc1 (stereo not given)	3599	-37	-9	4	16	-9	-2
C=CCc1c(C)nc(SCC(N)=O)[nH]c1=O	10848	-11	-3	5	3.0	9	2
Cc1nnc(SCC(=O)N2CCC(C(=O)Nc3nccs3)CC2)n1Cc1ccccc1	4172	-14	-10	8	1.5	4	-4

Quoted at random: 2 entries already listed, in no set order.
SMILES	Autofluor counter	PrP UTR inh	Mtb hypoxia rep	Mtb hypoxia rep growth	RN4220 kill	BJeLR lethal	Sa ugtP lethal
Cc1nnc(SCC(=O)N2CCC(C(=O)Nc3nccs3)CC2)n1Cc1ccccc1	4172	-14	-10	8	1.5	4	-4
C=CCc1c(C)nc(SCC(N)=O)[nH]c1=O	10848	-11	-3	5	3.0	9	2

Hits appear at their usual frequency; 4% or so of the library scored in one or more.
